# Screening results as filed in PubChem.
# Mtb hypoxia inh = Mtb hypoxia fluorescent reporter inhibition | fluorescence inhibition, % (concentration not given with the values) | 300,000 tested, 0.1% active | M. tuberculosis hypoxia-regulated fluorescent reporter, fluorescence | AID 1159583;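 active = 35 to 45% if threefold the growth effect, above 45% if 1.5-fold the growth effect; inactive = the rest, general growth blockers included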;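 note: wells of about 50 µL received 100 nL stock; 0% = vehicle wells and 100% = reference inhibitor wells; whole bacteria with a GFP reporter of the hypoxia response; strong numbers were not always called active; many hits fall short of the cut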
# Autofluor counter = counter-screen for toxin protease inhibitors: compound fluorescence; AID 624483; fluorescence intensity (no concentration beside the values); compound autofluorescence counterscreen, microsphere flow cytometry; active compounds read high; 360,000 tested, 3.1% active;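 active = at least 3 SD above the mean of all compounds, about 16000 in these data; inconclusive = too few beads counted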;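 note: 100 nL of 1 mM stock went into each well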
# ugtP null kill = compounds lethal to S. aureus RN4220 ugtP deletion mutant; OD600 growth, 16 h; some inactives read as strong as hits; growth inhibition, % (no concentration beside the values); 330,000 tested, 0.54% active; AID 1259309;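 active = z-score under -3 and OD600 up to 0.15 on both plates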;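 note: plate controls were untreated wells for no effect and antibiotic for full effect; wells of about 80 µL received 100 nL stock; the first replicate is given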
# RN4220 kill = kills Staphylococcus aureus RN4220; AID 1259311; S. aureus RN4220 growth, OD600, 16 h; 330,000 tested, 0.33% active; inhibition, % (no concentration beside the values);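 active = z-score of -3 or lower and OD600 up to 0.18 on both plates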;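 note: plate controls were untreated cells for no effect and reference antibiotic for full effect; stock transfer was 100 nL into about 80 µL; one replicate is shown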
# BJeLR viability = BJeLR cell viability loss. BJeLR (HRASV12) viability, CellTiter-Glo ATP luminescence, 48 h; reference of the scale not given here. inhibition, % (concentration not given with the values). 300,000 tested, 0.17% active;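 active = replicate mean above 50%; inconclusive = above 50% but judged a plate artefact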;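 note: 50 nL library stock added to about 25 µL; numbers are from one replicate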
# PrP 5UTR inh = suppresses PrP 5' UTR mRNA reporter expression; AID 488862; cell-based PrP 5' UTR mRNA reporter, plate reader; inhibition, % (test concentration not listed); 340,000 tested, 0.35% active;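 active = every replicate at 50% or more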;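 note: 0 = median of the neutral control wells; tested in H4 reporter cells; numbers are from one replicate; inactives centre near -14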
# Mtb hypoxia inh growth = further read-out of Mtb hypoxia inh, marked with its call; growth inhibition, %; measured here: M. tuberculosis growth (absorbance);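 0% = vehicle and 100% = reference antibiotic; read after six days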
# An asterisk follows results filed as active; ? = inconclusive; . = not tested or not shown. This is a random part of the collection. Share with any hit: about 4%.
SMILES,Mtb hypoxia inh,Mtb hypoxia inh growth,Autofluor counter,ugtP null kill,RN4220 kill,BJeLR viability,PrP 5UTR inh
O=C(Nc1ccc2c(c1)OCO2)C1CC(=O)N(c2ccccc2)C1 (centres undefined),3,-6,2837,10,0.9,-5,-30
CC(C)c1ccc(C=NNC(=O)c2cccc(Cl)c2)cc1,-6,14,.,-12,-4.4,.,.
COc1ccc(CCNS(=O)(=O)c2ccc(-n3cnnn3)c(OC)c2)cc1OC,.,.,4231,.,.,6,-17
CC(C)N1CCc2c(sc(NC(=O)C3CCCCC3)c2C(N)=O)C1,12,6,6642,-4,-12,-15,-19
CCOc1ccc(-n2c(=S)sc3c(=O)[nH]c(SCC(=O)NCC4CCCO4)nc32)cc1 (centres undefined),10,3,7477,0,1.6,13,-18
Cc1nn2c(SCC(=O)c3cccs3)cc(C(C)(C)C)nc2c1-c1ccccc1,16,-1,1947,50,-3.7,-11,-7
Cn1c(-c2ccccc2)c(C#Cc2ccc(N)cc2)c2ccccc21,1,3,3383,5,4.4,.,-7
CN1CCC(OC(=O)COc2ccc(Cl)cc2Cl)CC1,11,7,4101,2,7.3,23,-43
COc1ccc(CCNC(=O)COC(=O)c2cc(S(=O)(=O)NCc3ccccc3)ccc2O)cc1OC,9,13,3442,5,-2.6,-3,6
Cc1cc(NC(=O)Cc2cc(F)cc(F)c2)no1,-1,1,3973,10,3.9,3,-13
CN1C2CCC1CC(NC(=O)CSc1ccc(C(C)(C)C)cc1)C2 (centres undefined),11,7,6338,1,-0.6,-1,-3
Cc1cccc(Cn2c(N(C)CCO)nc3c2c(=O)[nH]c(=O)n3C)c1,.,.,4533,-4,0.3,-2,-53
CC(C)(C)C(=O)ON=C(N)c1ccc([N+](=O)[O-])s1,-6,-11,.,12,1.0,.,.
COc1ccccc1N(C)S(=O)(=O)c1ccc(C(=O)N2CCCC(C(F)(F)F)C2)cc1 (centres undefined),13,6,?,6,5.5,11,-14
CCOC(=O)c1ccc(NC(=S)NNC(C)(C)C)cc1,-2,4,?,4,1.8,10,-35

# Next part; the last 2 above are carried over.
SMILES,Mtb hypoxia inh,Mtb hypoxia inh growth,Autofluor counter,ugtP null kill,RN4220 kill,BJeLR viability,PrP 5UTR inh
COc1ccccc1N(C)S(=O)(=O)c1ccc(C(=O)N2CCCC(C(F)(F)F)C2)cc1 (centres undefined),13,6,?,6,5.5,11,-14
CCOC(=O)c1ccc(NC(=S)NNC(C)(C)C)cc1,-2,4,?,4,1.8,10,-35
Cc1ccc(CNC(=O)c2ccc(N3CCC4(CC3)CC(c3ccccc3)=NO4)c(NC(=O)c3c(Cl)cccc3Cl)c2)cc1,2,9,4230,5,2.9,-1,-14
COc1ccccc1Oc1c(C)oc2cc(OC(=O)N(C)C)ccc2c1=O,-5,0,2907,6,-0.2,-8,-12
CC(=NNC(=O)c1cc(-c2ccc(Cl)s2)[nH]n1)c1ccncc1,-2,-5,.,0,6.5,.,.
CCOC(=O)c1c(C)n(C)c2ccc(OCC(O)Cn3nc(C)c(Br)c3C)cc12 (centres undefined),19,9,10365,-11,17,14,-8
COc1cc(C(=O)NC(=S)Nc2ccc3c(c2)C(=O)N(C)C3=O)cc(OC)c1OC,10,5,2608,-3,3.6,-3,-26
Cc1ccc(NC(=O)C2CCCN2C(=O)OCc2ccccc2)cc1C (centres undefined),-8,3,5914,3,2.1,-9,-21
CC(=O)c1ccc(NC(=O)C2Cc3ccccc3CN2C(=O)c2ccccc2)cc1 (centres undefined),6,3,2281,-2,3.8,10,-31
Cc1ccc(-c2csc(/C(C#N)=C/Nc3ccccc3SC(F)(F)F)n2)c(C)c1,-11,-7,2556,13,-4.6,1,-77
O=C1c2ccccc2C(=O)c2c1cccc2N1CCOCC1,.,.,2752,.,.,-6,-19
COc1ccc(C=NNC(=O)c2nnn(-c3nonc3N)c2-c2cccs2)cc1OC,0,-3,.,12,7.2,.,.
COc1ccc(NC(=O)CN2C(=O)/C(=C3\SC(=S)N(C4CCS(=O)(=O)C4)C3=O)c3ccccc32)cc1 (centres undefined),9,6,4292,-5,14,-5,.
Cc1ccc(C(=O)Nc2ccc(NC(=O)c3cccs3)cc2)cc1[N+](=O)[O-],10,-1,2620,3,4.2,5,-5
CCCCc1c(C)nc2ccccc2c1SCCC#N,5,7,2250,-2,5.8,6,-48
COc1ccc(CN2C(=O)CC(=O)NC2=S)cc1,-1,2,2641,8,3.7,-7,-21
CCc1c(C)nc(SCC(=O)c2cccs2)c(C#N)c1C,-2,2,10658,-9,3.0,-4,-97

# Next section; it opens with the 3 that closed the last part.
SMILES,Mtb hypoxia inh,Mtb hypoxia inh growth,Autofluor counter,ugtP null kill,RN4220 kill,BJeLR viability,PrP 5UTR inh
CCCCc1c(C)nc2ccccc2c1SCCC#N,5,7,2250,-2,5.8,6,-48
COc1ccc(CN2C(=O)CC(=O)NC2=S)cc1,-1,2,2641,8,3.7,-7,-21
CCc1c(C)nc(SCC(=O)c2cccs2)c(C#N)c1C,-2,2,10658,-9,3.0,-4,-97
CSc1ccccc1C(=O)C1CCCN(C(=O)c2ccc(N3CCOCC3)cc2)C1 (centres undefined),7,4,4145,0,-1.3,-7,-76
O=C(NC1CCN(C(=O)NC2CCCCC2)CC1)c1ccco1,4,5,3675,1,3.6,-1,-54
CCCc1cc(=O)oc2cc(C)cc(OCC(=O)NC(Cc3c[nH]c4ccc(O)cc34)C(=O)O)c12 (centres undefined),.,.,5589,-7,5.7,2,9
CCSC1=N/C(=C\c2ccc(OC)cc2)C(=O)N1,6,11,2358,8,-1.0,-1,-9
Nc1c(Cl)c(Cl)nc(C(=O)OCC(=O)NCc2ccccc2)c1Cl,11,3,4622,8,4.3,.,-14
CN(C)c1ccc(P(=O)(OC2CCCCC2)C(O)c2cccnc2)cc1 (centres undefined),1,10,5327,-14,10,2,-28
O=C(CSc1nc2ccccc2n1CCc1ccccc1)NC1CCS(=O)(=O)C1 (centres undefined),5,8,2839,4,9.1,-10,-5
O=c1cc2c(nn1Cc1cccc(Cl)c1)-c1ccccc1CC2,.,.,3466,-6,2.6,0,57*
COc1ccc([C@H]2/C=C\CN(C(=O)[C@H](Cc3ccccc3)NC(=O)OCC3c4ccccc4-c4ccccc43)CC(=O)N2Cc2ccc(F)cc2)cc1,.,.,4217,.,.,3,-21
COc1ccc(C2Sc3nncn3N2Cc2ccc(C#N)cc2)cc1 (centres undefined),5,-1,2435,4,4.5,3,-6
CCc1cccc(NC(=O)c2cnn(-c3ccccc3)c2C)c1,-4,2,3253,-2,2.5,3,-70
O=C(NN1C(=O)C2C3C=CC([C@H]4CC34)[C@@H]2C1=O)c1ccc(Br)cc1 (some centres undefined),2,-2,6355,1,11,-2,-14
O=C(CNC(=O)c1ccc(Cl)cc1)NCC(F)(F)F,11,0,2073,3,0.6,-14,-6
CCOc1cc(/C=N/O)ccc1OCc1ccc([N+](=O)[O-])cc1,.,.,1878,.,.,1,-10
CCCn1c(SCC(=O)Nc2nnc(-c3ccccc3)s2)nnc1-c1ccccn1,1,11,2414,-1,3.0,-8,-8

# Profiles as entered above. Order of screens: Mtb hypoxia inh, Mtb hypoxia inh growth, Autofluor counter, ugtP null kill, RN4220 kill, BJeLR viability, PrP 5UTR inh
# CCCCc1c(C)nc2ccccc2c1SCCC#N is listed with 5, 7, 2250, -2, 5.8, 6, -48
# COc1ccc(C=NNC(=O)c2nnn(-c3nonc3N)c2-c2cccs2)cc1OC is listed with 0, -3, ., 12, 7.2, ., .
# COc1ccccc1Oc1c(C)oc2cc(OC(=O)N(C)C)ccc2c1=O is listed with -5, 0, 2907, 6, -0.2, -8, -12
# CCOc1cc(/C=N/O)ccc1OCc1ccc([N+](=O)[O-])cc1 is listed with ., ., 1878, ., ., 1, -10
# Cc1cc(NC(=O)Cc2cc(F)cc(F)c2)no1 is listed with -1, 1, 3973, 10, 3.9, 3, -13

# Remaining list, next part.
SMILES,Mtb hypoxia inh,Mtb hypoxia inh growth,Autofluor counter,ugtP null kill,RN4220 kill,BJeLR viability,PrP 5UTR inh
Cn1cccc1/C=C1\SC(=O)N(c2ccc(O)cc2)C1=O,.,.,9795,.,.,-5,-25
Cc1nc2scc(C)n2c(=O)c1S(=O)(=O)NCc1ccccc1Cl,9,5,6019,10,3.3,-10,-25
COc1ccc(/C=N/NC(C)(C)C)c(OC)c1,.,.,3898,.,.,6,-13
COc1ccccc1CNC(=O)C1CCN(c2nc3ccccc3o2)CC1,-7,-2,21312*,1,4.1,-7,-6
CCN1C(=O)CSC1=NC12CC3CC(CC(C3)C1)C2,7,11,12235,67,7.4,8,-16
CC1Cc2ccccc2N1C(=O)COC(=O)CSc1ccc(F)cc1 (centres undefined),-7,-4,?,5,-0.2,-2,-6
CC(C)N(Cc1ccccc1)C(=O)CCc1ccccc1,15,14,4251,7,11,-2,3
COC(=O)C1(C)NC(c2ccc(F)cc2)C2C(=O)N(c3ccc(C)cc3)C(=O)C21 (centres undefined),16,8,3485,5,0.9,2,5
CCCn1c(N2CCN(C(=O)Nc3ccccc3)CC2)nc2ccccc21,-1,4,4030,9,0.4,2,9
CC1=CC=CC2=NC(=O)CC(C)(C(=O)N(CC(=O)NC(C)C)C3CCCC3)N12 (centres undefined),5,1,7542,1,1.0,-2,-59
O=[N+]([O-])c1ccc(/C=N/Nc2cc(Cl)nc(-c3ccccc3)n2)cc1,.,.,2592,.,.,-8,-26
COc1ccccc1N1CC(C)(C)C(=O)N(C(=O)c2ccc(Cl)cc2)C1=S,-6,-6,5227,15,-1.4,3,-17
O=C(Nc1ccc(N2CCN(C(=O)c3ccc(Cl)cc3)CC2)cc1)c1cc2ccccc2o1,5,14,21324*,-3,-0.9,-9,-21
Cc1cnc(C(=O)OCC(=O)Nc2cc(-c3ccccc3)nn2-c2ccccc2)cn1,.,.,5130,.,.,-1,-7
CCOCCCNc1nc2c(-c3ccccc3)nnn2c2ccccc12,8,5,5663,5,-1.7,8,-9

# Some of the entries so far, with values under each structure:
# Values in the order: Mtb hypoxia inh | Mtb hypoxia inh growth | Autofluor counter | ugtP null kill | RN4220 kill | BJeLR viability | PrP 5UTR inh
> COC(=O)C1(C)NC(c2ccc(F)cc2)C2C(=O)N(c3ccc(C)cc3)C(=O)C21 (centres undefined)
→ 16 | 8 | 3485 | 5 | 0.9 | 2 | 5
> CCCn1c(N2CCN(C(=O)Nc3ccccc3)CC2)nc2ccccc21
→ -1 | 4 | 4030 | 9 | 0.4 | 2 | 9

# Next part:
SMILES,Mtb hypoxia inh,Mtb hypoxia inh growth,Autofluor counter,ugtP null kill,RN4220 kill,BJeLR viability,PrP 5UTR inh
Cc1ccc(C)c(N(CC(=O)NC2CCCC2)S(=O)(=O)c2ccccc2)c1,.,.,5419,.,.,2,-11
CCc1ccccc1NC(=O)c1cnccn1,-6,-9,21346*,-1,1.2,2,-18
CCC(=O)N1N=C(c2cccs2)CC1c1ccc(C)cc1 (centres undefined),13,7,4108,-1,2.3,11,0
CC(OC(=O)Cn1cnc2c1c(=O)n(C)c(=O)n2C)C(=O)NCc1ccccc1 (centres undefined),2,1,5718,-2,-0.5,3,-1
CCOC(=O)C1CCCCN1Cc1ccc(C(F)(F)F)cc1 (centres undefined),3,1,2959,-2,-8.5,0,2
CCOc1ccc2nc(N=Cc3c(C)[nH]n(-c4ccc(C)cc4)c3=O)sc2c1,1,9,.,1,-4.0,.,.
O=C(NCc1ccco1)C1CC(c2ccc(C(F)(F)F)cc2)=NO1 (centres undefined),6,9,4276,14,17,32,-29
CCOC(=O)C1CCN(/C=C2\C(=O)NC(=S)N(CC)C2=O)CC1,-13,5,2552,2,-5.0,-6,-15
CCOc1ccc(C(=O)OC(C)CN2CCN(C)CC2)cc1 (centres undefined),13,1,4100,15,2.4,6,-6
O=C(CCc1nc2cccnc2n1Cc1ccccc1)NCCc1ccc(Cl)cc1,7,8,4169,-10,2.4,0,-21
CSc1cccc(NC(=S)N(Cc2ccc(C)cc2)Cc2cccnc2)c1,1,6,3951,9,1.3,-5,7
Cc1onc(-c2ccccc2)c1C(=O)Nc1ccnn1C1CCCCC1,4,12,3214,6,2.6,-1,-25
CC(C)(C)c1ccc(Cn2nnc3c(=O)[nH]c(C4CCN(C(=O)c5ccco5)CC4)nc32)cc1,0,1,6261,55,6.1,-1,-11
CCc1nc(N2CCOCC2)c(C#N)c2c1CCCC2,.,.,3270,10,4.9,-9,6
